# Env fusion inh – inhibitors of HIV-1 Env-driven cell-cell fusion, primary screen, HeLa-JRFL effector, CEM21 target cells, luciferase; inhibition, % at 12.3 µM; 360,000 compounds, 1.1% hits; AID 651610, 2012;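 active means mean replicate inhibition score of at least 50 and every replicate individually at or above 50; inconclusive means only one of the two criteria met; inactive means mean below 50 and not all replicates reaching 50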;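 further: 0% = plate neutral controls and 100% = maraviroc near 300 nM; one replicate is shown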
# * = called active by the depositor; u = inconclusive; [ ] = another dose, or the depositor's remark. These rows are one share of the data; rates above refer to the full screens.
SMILES,Env fusion inh
CN(C)C(=O)C[C@H]1C[C@@H]2c3cc(NC(=O)Nc4ccc(F)cc4)ccc3O[C@@H]2[C@@H](CO)O1,3.9[16.7 µM]
C[C@H]1CN([C@@H](C)CO)C(=O)Cc2cc(NC(=O)CCC(F)(F)F)ccc2O[C@H]1CN(C)Cc1ccncc1,-60.6[16.7 µM]
CO[C@H]1CN(C)C(=O)c2cc(NC(=O)Nc3c(C)noc3C)ccc2OC[C@@H](C)N(C)C[C@@H]1C,-9.3[16.7 µM]
C[C@@H]1CN([C@@H](C)CO)C(=O)c2cc(N(C)C)ccc2O[C@@H](C)CCCCO[C@H]1CN(C)S(=O)(=O)c1cn(C)cn1,0.8[16.7 µM]
Cc1noc(C)c1S(=O)(=O)N(C)C[C@H]1Oc2ccc(NC(=O)Nc3ccccc3)cc2CC(=O)N([C@H](C)CO)C[C@H]1C,69.4*[16.7 µM]
CCCCc1c(-c2ccccc2OC)ncn1Cc1cccc(F)c1F,-0.5
CC(C)C[C@H](NC(=O)CC1CCCC1)C(=O)N1CCC[C@H]1C(=O)NCc1ccccc1,11.9
COCC(=O)N1CCC2(CC1)CN(C(=O)c1ccccn1)[C@H](CO)c1c2c2ccc(OC)cc2n1C,8.7[16.7 µM]
CCCN1C(=O)c2[nH]nc(-c3ccccc3)c2C1c1ccc(C)cc1 (stereo unspecified),0.3
CO[C@H]1CN(C)C(=O)c2ccc(NC(=O)C3CC3)cc2OC[C@@H](C)N(Cc2cccc(F)c2)C[C@H]1C,0.9[16.7 µM]
Cn1c(N)c(C(=O)CCc2ccccc2)c(=O)n(C)c1=O,-50.1
CO[C@H]1CN(C)C(=O)c2ccc(NS(=O)(=O)c3cccc(Cl)c3)cc2OC[C@H](C)NC[C@H]1C,-9.5[16.7 µM]
N#Cc1[nH]nc2nc[nH]c(=O)c12,15.3
CC(C)NC(=O)Nc1ccc2c(c1)C(=O)N([C@@H](C)CO)C[C@@H](C)[C@@H](CN(C)C(=O)Nc1ccc(F)cc1)O2,-4.1[16.7 µM]
CN(C)Cc1cn(CC[C@@H]2CC[C@H](NC(=O)Cc3cccnc3)[C@@H](CO)O2)nn1,-38.9[16.7 µM]
Cc1cc(OC(=O)NCCc2ccc(F)cc2)ccc1F,-25.3
CN1OC[C@@H]2CN[C@H](c3ccc(-n4ccnc4)cc3)C[C@@H]21,-4.5
Cc1cc(C(=O)Nc2ccc3c(c2)C(=O)N(C)[C@H]2CC[C@H](CC(=O)NCc4ccc(-c5ccccc5)cc4)O[C@H]2CO3)no1,u
COc1ccc(S(=O)(=O)Nc2ccc3c(c2)C(=O)N([C@H](C)CO)C[C@@H](C)[C@H](CN(C)C)OCCCC[C@@H](C)O3)cc1,22.6[16.7 µM]
COc1cc(C(=O)NC2CCCCN(C)C2=O)cc(OC)c1OC (stereo unspecified),1.0
C[C@H]1Cn2cnc(C(=O)N3CCN(c4ccccc4)CC3)c2C(=O)N1,87.6*
Cc1cccc(S(=O)(=O)N[C@H]2CC[C@H](CCNC(=O)c3cnccn3)O[C@@H]2CO)c1,-1.9[16.7 µM]
O=C(C[C@@H]1C[C@H]2c3cc(NC(=O)C4CCOCC4)ccc3O[C@H]2[C@H](CO)O1)NCc1ccc(Oc2ccccc2)cc1,-92.5[16.7 µM]
CO[C@@H]1CN(C)C(=O)c2cc(NC(=O)c3ccccc3F)ccc2OC[C@H](C)N(CC2CCOCC2)C[C@H]1C,2.0[16.7 µM]
O=C(C[C@@H]1C[C@H]2c3cc(NC(=O)Nc4ccc(C(F)(F)F)cc4)ccc3O[C@H]2[C@@H](CO)O1)NCc1ccc(Cl)cc1,1.9[16.7 µM]
CO[C@H]1CN(C)C(=O)c2cc(NC(=O)c3ccccc3F)ccc2OC[C@H](C)NC[C@@H]1C,-0.1[16.7 µM]
C[C@@H](NC(=O)C[C@@H]1CC[C@@H]2[C@H](COc3ccc(NS(=O)(=O)c4ccc(Cl)cc4)cc3C(=O)N2C)O1)c1ccccc1,7.4[16.7 µM]
CN1C(=O)c2cc(NC(=O)c3cscn3)ccc2OC[C@H]2O[C@H](CC(=O)NCc3ccc(Cl)c(Cl)c3)CC[C@H]21,67.7*[16.7 µM]
CS(=O)(=O)Nc1ccc2c(c1)[C@@H]1C[C@@H](CC(=O)NC3CCCC3)O[C@@H](CO)[C@@H]1O2,4.7[16.7 µM]
Nc1[nH]c(C(=O)c2ccc(Br)cc2)c(-c2ccncc2)c1C(=O)NCCc1c[nH]c2ccccc12,36.3

# In the list so far, these contain a Cl atom:
SMILES,Env fusion inh
CO[C@H]1CN(C)C(=O)c2ccc(NS(=O)(=O)c3cccc(Cl)c3)cc2OC[C@H](C)NC[C@H]1C,-9.5[16.7 µM]
O=C(C[C@@H]1C[C@H]2c3cc(NC(=O)Nc4ccc(C(F)(F)F)cc4)ccc3O[C@H]2[C@@H](CO)O1)NCc1ccc(Cl)cc1,1.9[16.7 µM]
C[C@@H](NC(=O)C[C@@H]1CC[C@@H]2[C@H](COc3ccc(NS(=O)(=O)c4ccc(Cl)cc4)cc3C(=O)N2C)O1)c1ccccc1,7.4[16.7 µM]
CN1C(=O)c2cc(NC(=O)c3cscn3)ccc2OC[C@H]2O[C@H](CC(=O)NCc3ccc(Cl)c(Cl)c3)CC[C@H]21,67.7*[16.7 µM]

# Quoted at random: two entries already listed.
SMILES,Env fusion inh
Nc1[nH]c(C(=O)c2ccc(Br)cc2)c(-c2ccncc2)c1C(=O)NCCc1c[nH]c2ccccc12,36.3
CN(C)C(=O)C[C@H]1C[C@@H]2c3cc(NC(=O)Nc4ccc(F)cc4)ccc3O[C@@H]2[C@@H](CO)O1,3.9[16.7 µM]

# Returning to the listing; the 2 compounds before the break are reprinted first.
SMILES,Env fusion inh
CS(=O)(=O)Nc1ccc2c(c1)[C@@H]1C[C@@H](CC(=O)NC3CCCC3)O[C@@H](CO)[C@@H]1O2,4.7[16.7 µM]
Nc1[nH]c(C(=O)c2ccc(Br)cc2)c(-c2ccncc2)c1C(=O)NCCc1c[nH]c2ccccc12,36.3
CC(=O)N1[C@H](C(=O)Nc2nccs2)[C@@H](CO)[C@@H]2Cn3c(ccc(/C=C/c4ccccc4)c3=O)[C@@H]21,-10.6[16.7 µM]
COC(=O)C1(F)C(=O)NC(=O)NC1OC (stereo unspecified),14.6
COC(=O)C[C@@H]1C[C@H]2c3cc(N)ccc3O[C@H]2[C@H](CO)O1,16.2[16.7 µM]
CC(C)(C)[S@](=O)N1Cc2cc(C(=O)NCc3ccncc3)nc(-c3cccc(-c4cccc(C#N)c4)c3)c2[C@@H]1CCO,-10.2[16.7 µM]
CO[C@H]1CN(C)C(=O)c2ccc(NC(=O)c3ccc(F)cc3)cc2OC[C@@H](C)N(C(=O)CC2CC2)C[C@@H]1C,-12.5[16.7 µM]
CN(C)CCCNC(=O)[C@@H]1[C@@H](CO)[C@@H]2Cn3c(cccc3=O)[C@H]1N2C(=O)Nc1cc(F)ccc1F,-26.2[16.7 µM]
c1ccc(CN2CCCC3CC2c2ccccc23)cc1 (stereo unspecified),-10.2
CN1C(=O)c2cc(NC(=O)Nc3ccccc3)ccc2OC[C@H]2O[C@@H](CC(=O)O)CC[C@@H]21,-9.2[16.7 µM]
COCC(=O)N1C[C@@H](C)[C@H](OC)CN(C)C(=O)c2cc(NC(=O)c3cc(C)on3)ccc2OC[C@H]1C,-2.0[16.7 µM]
COc1ccc(CN2C[C@H](O)COC[C@@H]3O[C@@H](CC(=O)N(C)C)CC[C@H]32)cc1,-5.2[16.7 µM]
C[C@@H]1CN([C@H](C)CO)C(=O)c2ccccc2-c2ccccc2CO[C@H]1CN(C)C(=O)[C@H]1CCCN1C,-8.2[16.7 µM]
CCOc1cc(OCC)cc(C(=O)N2CCC[C@@H]2C(=O)N2CCC[C@@H]2C(=O)NCc2cccc(OC)c2)c1,-16.9
O=C(NCC[C@H]1CC[C@H](NC(=O)C2CCOCC2)[C@H](CO)O1)c1cc(Cl)cc(Cl)c1,-2.6[16.7 µM]
COc1ccc(NC(=O)Nc2ccc3c(c2)[C@@H]2C[C@H](CC(=O)NC4CCCCC4)O[C@H](CO)[C@@H]2O3)cc1,-6.1[16.7 µM]
CO[C@H]1CN(C)C(=O)c2ccc(NC(=O)C3CCCC3)cc2OC[C@@H](C)N(C(=O)CC2CC2)C[C@@H]1C,12.7[16.7 µM]
COCC(=O)Nc1ccc2c(c1)OC[C@@H](C)N(Cc1cccc(F)c1)C[C@@H](C)[C@@H](OC)CN(C)C2=O,13.6[16.7 µM]
CO[C@H]1CN(C)C(=O)c2ccc(NC(=O)Nc3ccccc3F)cc2OC[C@@H](C)N(CC2CC2)C[C@H]1C,3.5[16.7 µM]
O=C(O)C[C@H]1CC[C@H](NC(=O)c2ccncc2)[C@H](CO)O1,-30.6[16.7 µM]
C[C@@H]1CN([C@H](C)CO)C(=O)Cc2cc(NS(=O)(=O)c3ccc(Cl)cc3)ccc2O[C@H]1CN(C)C(=O)Nc1ccc2c(c1)OCO2,-33.0[16.7 µM]
CCCNC(=O)Nc1ccc2c(c1)C(=O)N(C)C[C@@H](OC)[C@H](C)CN(C(=O)CC)[C@H](C)CO2,-5.6[16.7 µM]
CCS(=O)(=O)Nc1ccc2c(c1)C(=O)N(C)C[C@@H](OC)[C@@H](C)CN(Cc1ccccn1)[C@@H](C)CO2,-0.4[16.7 µM]
CCOC(=O)C1=C(C(=O)OCC)C2N(Cc3ccc(C#N)cc3)c3ccccc3[C@@]23C[C@@H](C(=O)OC)N(S(=O)(=O)c2ccc(C)cc2)C3=N1 (stereo partly specified),23.3
Nc1nc2c(ncn2[C@@H]2O[C@H](C(=O)N[C@H](Cc3ccccc3)C(=O)NCc3ccc4c(c3)OCO4)[C@@H](O)[C@H]2O)c(=O)[nH]1,9.9
COc1ccc2c3c(n(C)c2c1)[C@@H](CO)NCC31CCN(CC2CC2)CC1,-34.1[16.7 µM]
C[C@H](NC(=O)C[C@H]1CC[C@H]2[C@H](COc3ccc(NS(=O)(=O)c4ccc(Cl)cc4)cc3C(=O)N2C)O1)c1ccccc1,7.0[16.7 µM]
CO[C@@H]1CN(C)C(=O)c2ccc(NC(C)=O)cc2OC[C@@H](C)N(Cc2ccccc2F)C[C@H]1C,-23.5[16.7 µM]
Nc1[nH]c(C(=O)c2ccc(Br)cc2)c(-c2ccc(Cl)cc2[N+](=O)[O-])c1C(=O)NCCc1c[nH]c2ccccc12,22.1
O=C(C[C@H]1C=C[C@@H](NS(=O)(=O)c2ccccc2)[C@H](CO)O1)NCc1ccc(Cl)c(Cl)c1,-6.3[16.7 µM]
CO[C@H]1CN(C)C(=O)c2cc(NC(=O)Nc3cccc(Cl)c3)ccc2OC[C@H](C)NC[C@@H]1C,11.1[16.7 µM]
COC(=O)[C@@H]1[C@@H](CO)[C@@H]2Cn3c(ccc(-c4ccccc4)c3=O)[C@@H]2N1C(=O)CC1CC1,5.2[16.7 µM]
C[C@H]1CN([C@@H](C)CO)C(=O)c2cc(NC(=O)Nc3ccccc3)ccc2O[C@@H]1CN(C)Cc1ccccc1,4.5[16.7 µM]
C[C@@H]1CN([C@H](C)CO)C(=O)c2cc(C#Cc3cccc(F)c3)cnc2O[C@@H]1CN(C)CC1CC1,12.3[16.7 µM]
CN(C)C(=O)[C@H]1[C@H](CO)[C@H]2Cn3c(ccc(-c4ccccc4)c3=O)[C@@H]1N2C(=O)C1CCC1,-23.0[16.7 µM]
COC(=O)[C@]12C[C@H](CC(=O)N3CCCCC3)C(=O)N(Cc3ccccc3)C1=C[C@H](C1CCCC1)O[C@@H]2C,3.7
COCC(=O)Nc1ccc2c(c1)[C@@H]1C[C@H](CC(=O)N[C@@H](C)c3ccccc3)O[C@H](CO)[C@@H]1O2,32.8[16.7 µM]
CC(=O)N1C[C@@H](CO)[C@@H](N(C)C(=O)/C=C/c2ccccc2)C[C@H]1c1ccccc1,-2.1
CO[C@@H]1CN(C)C(=O)c2ccc(NC(=O)NC(C)C)cc2OC[C@H](C)N(Cc2ccccn2)C[C@H]1C,-8.6[16.7 µM]
CN(C)C(=O)[C@@H]1N[C@@H]2c3ccc(-c4ccc(F)cc4)c(=O)n3C[C@@H]2[C@H]1CO,15.8[16.7 µM]
CC(C)[C@H]1COCn2nncc2CC[C@H](C)C(=O)N1,11.3[16.7 µM]
CO[C@H]1CN(C)C(=O)c2ccc(NC(=O)CC(F)(F)F)cc2OC[C@@H](C)N(S(=O)(=O)c2cn(C)cn2)C[C@@H]1C,-4.3[16.7 µM]
CCCN(C)C[C@H]1Oc2cc(C#CCC3CCCC3)ccc2S(=O)(=O)N([C@@H](C)CO)C[C@@H]1C,12.1[16.7 µM]
CC(C)C[C@H](NC(=O)c1ccco1)C(=O)N1CCC[C@H]1C(=O)NCc1ccccc1,-41.9
O=C1O[C@@H](c2ccccc2)[C@@H](c2ccccc2)N2[C@@H](c3ccc(OCCO)cc3)[C@]3(C(=O)Nc4ccccc43)[C@@H](C(=O)Nc3nc4ccccc4s3)[C@H]12,-2.9[16.7 µM]
CS(=O)(=O)c1cccc(OCCCN2CCC(C(O)(c3ccccc3)c3ccccc3)CC2)c1,u
CO[C@H](C(=O)N(C)C[C@H]1OCc2ccccc2-c2c(n(C)c3ccccc23)C(=O)N([C@@H](C)CO)C[C@H]1C)c1ccccc1,-39.9[16.7 µM]
Cc1ccc(S(=O)(=O)N[C@H]2C=C[C@@H](CC(=O)NCCN3CCCCC3)O[C@@H]2CO)cc1,5.7[16.7 µM]
Cc1[nH]nc2c1C(c1ccc(F)cc1)N(c1ccccc1)C2=O (stereo unspecified),-7.4
C[C@@H]1CCCCO[C@H](CN(C)C)[C@@H](C)CN([C@@H](C)CO)C(=O)c2cc(NC(=O)NC3CCCCC3)ccc2O1,8.0[16.7 µM]
C[C@H](CO)N1C[C@H](C)[C@@H](CN(C)Cc2ccc(C(F)(F)F)cc2)Oc2ccc(NC(=O)Cn3cnnn3)cc2C1=O,-19.3[16.7 µM]
CC(C)NC(=O)Nc1ccc2c(c1)C(=O)N([C@H](C)CO)C[C@@H](C)[C@@H](CN(C)S(C)(=O)=O)O2,-13.2[16.7 µM]
NC(=O)c1c(N)[nH]c(C(=O)c2ccccc2)c1-c1ccc2c(c1)OCO2,-25.1
CCCCc1c(-c2ccccc2OC)ncn1Cc1cc(F)cc(F)c1,-7.9
O=C(C[C@H]1C=C[C@H](NC(=O)c2cccc(F)c2)[C@H](CO)O1)Nc1nccs1,-22.9[16.7 µM]
